Sfp PPTase inh – blocks B. subtilis Sfp PPTase activity. Biochemical Sfp PPTase activity, qHTS. Potency, µM, for the others: max response, negative = inhibition, usual class: inhibitors. 3.5% of 310,000 active. AID 1490; active = well fitted inhibition curve with a large enough effect; inconclusive = small, poorly fitted or top-dose-only effect, or another doubt; inactive = no such curve, though single readings can be large or run the other way;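 note: the enzyme is Sfp with the accession as filed and its product quenches rhodamine fluorescence; potency is the fitted concentration of half-maximal effect; 0% = enzyme reaction without inhibitor and -100% = no enzyme wells; top concentration of the series not given in the record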
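Sfp 15 nM + cpd, 15 min RT; start w/ rhodamine-CoA 5 uM, BHQ-2-YbbR 12.5 uM (final); 50 mM Hepes pH 7.6, 10 mM MgCl2, 0.01% NP-40, 0.01% BSA; read 525/598 nm at 0 and 30 min.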
gsp ag – activates gsp, the McCune-Albright syndrome mutation; gsp mutant cells, cAMP HTRF, 30 min; control for the full effect not named in the record; Potency, µM (highest dose often 76.9 µM), for the others: at the top dose activation (cAMP increase), hits mostly activators; 0.13% of 340,000 active; active = well fitted activation curve with a large enough effect; inconclusive = small, poorly fitted or top-dose-only effect, or another doubt; inactive = no such curve, though single readings can be large or run the other way; cell line not stated here;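 note: phosphodiesterase inhibitor Ro 20-1724 added with compounds to block cAMP breakdown; potency is the fitted concentration of half-maximal effect; nearly all actives have a fitted effect of over 60% in size; about a fifth of the inactives were tested at one dose only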
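Cells in DMEM/10% FBS with G418 were pretreated with compounds in DMSO plus […] (300 uM stock) for 30 min at 37C. cAMP was measured by HTRF (cAMP-d2 plus anti-cAMP antibody-K) after 30 min at room temperature.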
Menin MLL FP FL – displaces fluorescein MLL peptide from human menin | 290,000 tested, under 10 active | Fluorescence polarization, fluorescein-MLL peptide displacement from menin | AID 1766 | FP activity change, % at 61.4 µM; inconclusive = falling polarisation curve, or a change in total fluorescence; inactive = total fluorescence flat and polarisation flat or rising; no compound was filed as active; the % refers to the polarisation; negative = inhibition;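 note: % of control where 0% means no effect; inhibitors lower the polarisation; unlabelled MLL peptide was the positive control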
TRPML1 inh – blocks the human TRPML1 channel; activity change, negative = inhibition, % (concentration not given with the values); TRPML1-inducible cells, Ca2+ dye fluorescence, FDSS; active compounds read low; inhibition of EC80 agonist-evoked calcium signal; 0.02% of 390,000 active; in the data active means activity change below about -50%; inconclusive means about -30% to -50%; inactive means above about -30%;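 note: stimulus is agonist 54-4 at its EC80 concentration; % is set by controls: 0 for no effect and ±100 for the full control effect; the text of the record puts the active cut at -80%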
Target sequence (Q9GZU1 whole entry, looked up): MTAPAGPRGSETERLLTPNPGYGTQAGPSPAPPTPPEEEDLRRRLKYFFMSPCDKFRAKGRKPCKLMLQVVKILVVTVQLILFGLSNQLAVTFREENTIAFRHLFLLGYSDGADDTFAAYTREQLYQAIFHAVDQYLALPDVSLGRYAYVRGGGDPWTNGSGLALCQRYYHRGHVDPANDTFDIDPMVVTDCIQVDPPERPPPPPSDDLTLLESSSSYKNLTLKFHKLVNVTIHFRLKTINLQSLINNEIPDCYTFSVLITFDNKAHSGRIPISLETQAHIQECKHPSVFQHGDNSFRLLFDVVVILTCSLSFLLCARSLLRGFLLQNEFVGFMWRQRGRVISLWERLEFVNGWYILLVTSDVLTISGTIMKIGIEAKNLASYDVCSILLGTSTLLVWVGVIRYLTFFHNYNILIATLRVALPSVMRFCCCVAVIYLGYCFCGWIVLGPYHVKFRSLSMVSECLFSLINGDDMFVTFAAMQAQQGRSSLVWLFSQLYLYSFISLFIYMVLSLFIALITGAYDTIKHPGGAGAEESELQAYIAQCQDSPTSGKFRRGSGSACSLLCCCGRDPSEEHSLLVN
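Tet-induced TRPML1-DL cells loaded with Ca8 no-wash calcium dye were read kinetically on FDSS. Compound addition was followed by EC80 agonist 54-4 (4 uM final); inhibition was read over 110 s.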
ClpP mod – qHTS Assay for Activators of ClpP; ATP-dependent Clp protease proteolytic subunit (Bacillus subtilis (strain 168)), P80244; purified B. subtilis ClpP, FRET peptide cleavage, 20 min; Potency, µM (highest dose often 57.5 µM), without a hit: at the highest dose activity change, negative = active; 1.9% of 340,000 active; AID 651965, 2013; active = well fitted falling curve with a large enough effect; inconclusive = small, poorly fitted or top-dose-only effect; inactive = no such curve, though single readings can be large or run the other way; note: potency is the fitted concentration of half-maximal effect; the source files actives as falling curves though it sought activators and does not explain the sign; nearly all actives have a fitted effect of over 65% in size; many hits overshoot -100%
Target sequence (P80244 whole entry, looked up): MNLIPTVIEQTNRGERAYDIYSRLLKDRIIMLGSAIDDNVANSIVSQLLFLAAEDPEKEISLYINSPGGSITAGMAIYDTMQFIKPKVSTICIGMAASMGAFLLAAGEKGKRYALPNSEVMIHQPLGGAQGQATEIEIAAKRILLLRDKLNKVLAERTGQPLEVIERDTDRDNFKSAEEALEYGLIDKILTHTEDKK
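ClpP 10 microg/mL final, pH 8 Tris/KCl buffer with BSA, glycerol, Tween-20; compound pinned in; FRET-FV substrate; RT 20 min; Ex320/Em430; ΔFRET vs ADEP 5.8 microM, DMSO, no enzyme.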
gsp antagonist – antagonists of gsp mutant (McCune-Albright syndrome); Potency, µM (top dose mostly 76.9 µM), inactives show top-dose activity change, negative = inhibition, usual class: inhibitors; gsp-mutant cells, cAMP HTRF, 30 min; control for the full effect not named in the record; 0.4% of 340,000 active; active = falling curve of any shape with a large fitted effect; inconclusive = falling curve, mostly with a smaller effect; inactive = flat or rising curve; cell line not stated here;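 note: intracellular cAMP measured with PDE inhibitor Ro 20-1724 present during compound exposure; potency is the fitted concentration of half-maximal effect; % is set by controls: 0 for no effect and ±100 for the full control effect; nearly all actives have a fitted effect of over 65% in size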
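HTRF cAMP read-out (cAMP-d2 plus anti-cAMP antibody-K in lysis buffer, 30 min RT). Before lysis, cells are exposed to compounds with […] for 30 min at 37C in DPBS containing Ca/Mg, BSA and Tween 20.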
TRPV1 potentiator – potentiators of human vanilloid receptor 1 (TRPV1) | AID 540277 | potentiation, % at 8.33 µM | TRPV1-expressing cells, Fluo-8 calcium influx, capsaicin EC20 potentiation; host cell line not named in the record; control for the full effect not named in the record | Q8NER1 | 0.02% of 320,000 active; active means potentiation above 80%; inconclusive means 30% to 80%; inactive means below 30%; note: 0% is about no effect
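TRPV1-expressing cells were cultured overnight at 35.5C and loaded with Fluo-8 calcium dye for 40 to 90 min at room temperature. After a 10 s baseline, compound was added and calcium influx was read kinetically for 3 min (ex 480/em 520 nm).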
Numbers without * were called inactive; u = inconclusive; x = not tested or not shown; & = joins results of further samples; [ ] = another dose, or the depositor's remark.

SMILES	Sfp PPTase inh	gsp ag	Menin MLL FP FL	TRPML1 inh	ClpP mod	gsp antagonist	TRPV1 potentiator
CCCCSc1nc2c([nH]1)c(=O)n(C)c(=S)n2C	x	27%	x	9	-4.7%	u	x
O=C(NCCC1=CCCCC1)c1ccc(Br)o1	-12%	4%	5.8	-1	-0.6%	-3%	1
Cc1ccc(C(=O)Nc2sc3c(c2C#N)CCCCC3)cc1C	u	27%	6.1	1	-3.3%	-8%	-2
O=C(CCCOc1ccc(Cl)cc1Cl)Nc1ccncc1	-9%	-18%	2.1	6	-0.6%	-25%	-1
O=C(NC(=S)N1CCCCC1)c1csc([N+](=O)[O-])c1	-3%	-7%[15.4 µM]	1.1	4	x	-11%	15
COC(=O)Cc1c(C)c2ccc(OC(=O)c3ccco3)cc2oc1=O	16%	-24%	0.5	6	477%	4%	0
Cc1nccc(-c2ccc(-n3c(C)ccc3C)cc2)n1	9%	18%	2.4	-7	x	1%	3
CC(CCN1CCN(c2ccc(F)cc2)CC1)c1ccccc1 (centres undefined)	-6%	-4%[15.4 µM]	-2.3	-4	0.1%	8%	10
Cc1ccccc1CNc1ccc(C(CC(N)=O)NC(=O)c2ccc(Br)cc2)cc1[N+](=O)[O-] (centres undefined)	u	x	u	1	0.4%	-10%	-11
O=C(Nc1ccc(O)cc1)c1cc2n(n1)C(C(F)(F)F)CC(c1ccco1)N2 (centres undefined)	9%	-5%	0.4	-2	-4.5%	4%	0
CCOc1ccc(NC(=O)C2=NN(c3ccccc3)C(=O)CC2)cc1S(=O)(=O)N1CCCCC1	x	-4%	x	8	-1.3%	-6%	23
COc1cccc(NC(=O)NCc2ccccc2Cl)c1	x	-16%	x	4	x	3%	x
CCNS(=O)(=O)c1ccc(NC(=O)Nc2cccc(OC)c2)cc1	-4%	13%	-0.9	-15	-1.3%	-10%	u
COc1cccc([C@@H]2CC=C(C(=O)O)[C@H](c3ccccc3)N2S(=O)(=O)c2ccc(C)cc2)c1	x	-4%	x	-2	-1.0%	-1%	-1
CCN1CCN(S(=O)(=O)c2ccc(Oc3ccccc3OC)cc2)CC1	12%	5%[15.4 µM]	2.9	21	20µM*	3%	-5
CCC(NC(=O)CNC(=O)c1ccc2c(c1)OCO2)c1ccc(Br)cc1 (centres undefined)	x	1%	x	20	-14%	-3%	7
O=C(NCCc1ccccc1)/C(=C\c1cccc([N+](=O)[O-])c1)NC(=O)c1ccco1	9%	20%	0.2	1	0.9%	0%	3
Cc1ccccc1NC(=O)c1c(Cl)nc(C)c(Cl)c1C	12%	2%[15.4 µM]	3.2	1	2.0%	9%	-9
Cc1ccc2nc(NCCc3ccc(Cl)cc3)c3nncn3c2c1	-6%	u	-0.8	11&3	-17%&-18%	7%	-14
O=C(COC(=O)/C=C/c1ccc(Br)o1)Nc1cccc(S(=O)(=O)N2CCOCC2)c1	x	3%[15.4 µM]	x	11	-1.5%	u	x
COc1cccc(CNC(=O)CCCNS(=O)(=O)c2cccs2)c1	18%	-11%	-4.7	-18	-5.2%	10%	-2
CCCC(=O)NCCSC	2%	29%	5.1	1	1.1%	9%	-6
O=C(Nc1ccccc1)C1=C[C@H](C2CCCCC2)C[C@H](OCc2ccc(CO)cc2)O1	8%	x	-1.3	13	-0.7%	-10%	8
Cc1ccc(S(=O)(=O)N/N=C(\c2ccccc2)c2cccnc2)cc1	12%	14%	-4.7	12	x	1%	-5
NS(=O)(=O)c1ccc(CCNC(=O)CCCn2c(SCC(=O)N3CCCC3)nc3ccsc3c2=O)cc1	17%	23%	1.0	-6	x	2%	-48

New compounds follow:
SMILES	Sfp PPTase inh	gsp ag	Menin MLL FP FL	TRPML1 inh	ClpP mod	gsp antagonist	TRPV1 potentiator
COCCNC(=O)COc1cc(=O)n(C)c2ccccc12	20%	-38%[inhibitor]	0.9	-10	-5.4%	9%	6
Cc1cccc2[nH]c(CCNC(=O)C3CCC(=O)N(CCc4cccc(F)c4)C3)nc12 (centres undefined)	2%	-18%	x	-3	-1.1%	8%	-10
COC(=O)CNC(=O)C1Cc2ccccc2CN1S(=O)(=O)c1cccs1 (centres undefined)	9%	7%[15.4 µM]	2.0	10	x	0%	-2
c1ccc(SCc2nc3ccccc3[nH]2)nc1	0%	12%	-1.8	-10	-2.7%	6%	-11
CSc1ncccc1C(=O)Nc1ccc2c(c1)OCCO2	x	5%[15.4 µM]	x	-11	0.3%	2%	x
COc1ccccc1NC(=O)CC1S/C(=N/N=C2\CCCc3ccccc32)NC1=O (centres undefined)	0%	4%	-1.0	16	x	-7%	-6
C[C@H](O)[C@@H]1C(=O)N2CCc3ccc(N4CCOCC4)cc3[C@@H]2C[C@@H]1N(C)S(=O)(=O)c1ccccc1	x	x	x	-9	-3.9%	-2%	x
O=C(CN1NS(=O)(=O)c2ccccc2C1=O)Nc1ccccc1OC(F)F	19%	-8%	1.5	-10	2.0%	-5%	4
CCCCN(C(=O)c1ccc(S(=O)(=O)N(CC)CC)cc1)c1c(N)n(CCC)c(=O)[nH]c1=O	11%	19%[15.4 µM]	0.1	13	7.4%	-17%	26
CC1CCN(S(=O)(=O)c2ccc3c(ccn3CCC(=O)NC(C)C)c2)CC1	4%	-3%	x	-27	0.8%	-1%	-14
CCOC(=O)c1cc(S(=O)(=O)N2CCN(c3ccccc3OC)CC2)cn1C	5%	16%	x	3	x	-11%	3
O=C1NC(NS(=O)(=O)c2ccccc2)(C(F)(F)F)C(=O)N1Cc1ccccc1 (centres undefined)	20%	9%	-0.6	-6	0.6%	2%	5
COC(=O)c1nn(-c2ccccc2)c(=O)cc1Oc1ccccc1	10%	-26%	1.9	-7	-0.5%	0%	8
CCOc1ccc(-c2c(=O)n(OCc3ccccc3Br)c3ccccc3[n+]2[O-])c(OCC)c1	10%	-13%	-12	9	-1.0%	-24%	0
CCOc1cc(CNc2nn[nH]n2)ccc1OCC(=O)NC(C)(C)C	10%	4%	-1.8	8	x	5%	8
Cc1nc2nc[nH]n2c(=O)c1CCC(C)C	12%	2%	0.8	-14	-3.5%	-2%	-9
O=C(CN1N=C(c2ccccc2)CCC1=O)NCc1ccco1	1%	x	-0.6	x	x	x	1
CC1Cn2c(nc3c2c(=O)[nH]c(=O)n3C)O1 (centres undefined)	19%	0%	-0.6	10	-0.4%	5%	19
Cc1cc(OCc2nc(-c3ccc(NC(=O)c4cccnc4)cc3)no2)ccc1Cl	-2%	3%	2.1	16	-2.6%	-1%	x
Clc1cc(Cl)c2nc(N3CCCC3)sc2c1	x	28%	x	-1	-5.7%	u	x
CNC(=O)C1CC(=O)N(CCc2ccccc2)C(=Nc2ccc(OC)cc2)S1 (centres undefined)	-3%	4%[15.4 µM]	-0.2	33	x	-15%	-9
COc1ccc(N(CC(=O)N/N=C/c2ccc3c(c2)OCO3)S(=O)(=O)c2ccccc2)cc1	2%	x	-0.1	x	x	x	3
Cn1ncc(N=Cc2ccccc2[N+](=O)[O-])c1C(N)=O	3%	-2%[15.4 µM]	-0.9	0	-2.6%	4%	9
Cc1ccc(S(=O)(=O)NCCCCCC(N)=O)cc1	19%	0%	-2.7	16	0.1%	1%	-7
CN(C)c1c(N)[nH]c2c(c1=O)c(=O)n(C)c(=O)n2C	u	-15%	4.6	-21	-1.6%	4%	22

A draw from above in order of molecular weight, falling:
SMILES	Sfp PPTase inh	gsp ag	Menin MLL FP FL	TRPML1 inh	ClpP mod	gsp antagonist	TRPV1 potentiator
CCCCN(C(=O)c1ccc(S(=O)(=O)N(CC)CC)cc1)c1c(N)n(CCC)c(=O)[nH]c1=O	11%	19%[15.4 µM]	0.1	13	7.4%	-17%	26
COc1ccc(N(CC(=O)N/N=C/c2ccc3c(c2)OCO3)S(=O)(=O)c2ccccc2)cc1	2%	x	-0.1	x	x	x	3
Cc1cccc2[nH]c(CCNC(=O)C3CCC(=O)N(CCc4cccc(F)c4)C3)nc12 (centres undefined)	2%	-18%	x	-3	-1.1%	8%	-10

New compounds follow:
SMILES	Sfp PPTase inh	gsp ag	Menin MLL FP FL	TRPML1 inh	ClpP mod	gsp antagonist	TRPV1 potentiator
Cc1ccc(NC(=O)CSc2nc(N)cc(=O)[nH]2)cc1S(=O)(=O)N1CCCCCC1	x	4%	x	-3	x	4%	x
CCNS(=O)(=O)c1ccc(CCC(=O)N2CCN(c3ccc(OC)cc3)CC2)cc1	14%	5%[15.4 µM]	-7.0	-10	1.1%	-3%	1
Cc1ccccc1C(=O)NNc1ncnc2c1cnn2C	-15%	-9%[15.4 µM]	0.3	-27	-0.3%	-5%	15
O=S(=O)(NCCCCNS(=O)(=O)c1ccc(F)cc1)c1ccc(F)cc1	x	1%[15.4 µM]	x	-2	x	-14%	x
O=C(CN(Cc1ccco1)C(=O)CNS(=O)(=O)c1ccc(Cl)cc1)NCC1CCCO1 (centres undefined)	9%	14%[15.4 µM]	1.7	-4	x	8%	0
COc1ccc(-c2[nH]n(-c3ccc([N+](=O)[O-])cc3)c(=O)c2C=NCc2ccncc2)cc1	1%	6%[15.4 µM]	0.5	0	x	-29%	4
CC(=O)OCC1(C)CN(c2ccccc2)N(C(=O)c2ccc(F)cc2)C1=O (centres undefined)	5%	13%	2.4	-5	0.0%	-10%	13
Cc1ccc(/C=C/C(=O)O)cc1S(=O)(=O)Nc1ccc(C(=O)O)cc1	-9%	u	0.0	x	1.1%	8%	20
O=C(Nc1cccc(-c2ccc(N3CCOCC3)nn2)c1)c1ccccc1	x	-23%[15.4 µM]	x	5	x	-5%	3
O=C(CNC(=O)c1ccco1)N/N=C/c1c[nH]c2ccccc12	13%	-49%[inhibitor]	-3.9	-2	-1.8%	5%	1
Cc1cc(C)c(S(=O)(=O)/N=C2\C=CC(=O)C(Cl)=C2)c(C)c1	50µM*	-21%	6.3	20	-2.2%	6%	-2
CCOC(=O)c1ccc(N2Cc3ccccc3C2=NC(=O)c2cccc([N+](=O)[O-])c2)cc1	x	45%	x	x	-9.4%	-8%	x
CC1CCN(C(=O)C(=O)c2cn(CC(=O)N3CCCCCC3)c3ccccc23)CC1	7%	12%	x	-14	-1.2%	-10%	-3

Screens as filed in PubChem.
